Calb FLC = C. albicans growth modulation with fluconazole; growth inhibition, % (no concentration beside the values); 300,000 tested, 0.57% active; C. albicans CaCi-2 (fluconazole-resistant clinical isolate) + fluconazole, Alamar Blue growth, 48 h;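 active = most replicates above 75%; inconclusive = exactly half above 75%; inactive = most below 75%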;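 note: all wells also contain fluconazole at 8 µg/ml as a sub-toxic cotreatment; 0% = median of DMSO wells and 100% = median of geldanamycin control wells; wells of about 8 µL received 7.5 nL stock; the first replicate is given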
T cruzi inh = T. cruzi replication inhibition; T. cruzi beta-gal in NIH3T3, luminescence, 90 h; inhibition, % (test concentration not listed); 300,000 tested, 1.4% active; AID 1885;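 active = mean inhibition across valid replicates above about 55%, limit read from the data; inconclusive = mean below that limit but half or more replicates reach it; inactive = mean below it, under half of replicates reach it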;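 note: signal also drops with host cell toxicity which is not excluded here; 0% = plate median of DMSO wells and 100% = zero luminescence signal; higher percent means less beta-gal luminescence so fewer parasites; stock transfer was 50 nL into about 50 µL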
LANA-H2A inh = blocks KSHV LANA binding to histone H2A/H2B. inhibition, % (no concentration beside the values). cell-free LANA-H2A/H2B peptide, fluorescence polarization. Q9QR71. 320,000 tested, 0.6% active; in the data active = inhibition mostly above about 10%, no sharp cut-off; inactive = mostly below about 6.7%;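 note: stock transfer was 7.5 nL into about 10 µL; 0% = median of vehicle wells and 100% = median of positive control wells; one replicate is shown; the record names a cut of 25% in any replicate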
Beta apoptosis = beta cell apoptosis inhibition; protection from apoptosis, % (no concentration beside the values); 300,000 tested, 0.8% active; AID 435005; INS-1E cytokine-induced death, ATP luminescence, 48 h; percent of positive-control rescue, neutral wells zero;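 active = all replicates at 75% or more, or half of them and the mean; inconclusive = half reach 75% but not the mean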;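 note: 0% = cytokine-treated negative control wells and 100% = positive control rescue; higher means more ATP so stronger rescue from cytokine killing; wells of about 40 µL received 100 nL stock; the first replicate is given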
A1 inh = inhibitors of the anti-apoptotic protein A1, read as caspase activation; MEF A1-2A-BIM cells, Caspase-Glo 3/7 luminescence, 3 h; percent of clofoctol response, vehicle zero; caspase activation, % (no concentration beside the values); 330,000 tested, 0.066% active; AID 2462;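 active = over half of replicate activation scores above 10%, or exactly half above 10 with the replicate mean above 10; inconclusive = replicate mean below 10 yet half the replicates above 10; inactive = over half of replicates below 10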;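 note: wells of about 30 µL received 50 nL stock; many hits fall short of the cut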
Vif TR-FRET = HIV-1 Vif–A3G interaction blockers – biochemical, TR-FRET, GST-Vif 1-94, biotin-A3G peptide, dose response retest, primary screen (AID 1117319) | TR-FRET GST-Vif / biotin-A3G peptide binding; higher % means a stronger effect; test concentration not given here; strong numbers were not always called active | inhibition, %; hits with a dose series show IC50 in µM | 260,000 tested, 0.57% active;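 active = above the screen mean plus three standard deviations and confirmed in dose response; inconclusive = results disagree or hit not tested in dose response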;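 note: Vif residues 1-94 fused to GST binding biotinylated APOBEC3G peptide 110-148; 0% = full assay without inhibitor and 100% = GST in place of GST-Vif; retest series ran down from 100 µM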
AF4-AF9 inh = blocks AF4 peptide binding to human AF9 | AlphaScreen, biotin-AF4 peptide binding to FLAG-AF9 | inhibition, % at 10 µM | 350,000 tested, 0.47% active;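 active = every replicate reaching a set inhibition limit, whatever the replicate mean, cut at about 25% in these data; inconclusive = mean inhibition reaches that limit but some replicates miss it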;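 note: 0% = plate neutral control median and 100% = total signal loss; the record names both 10 and 1 µM as test concentration; the first replicate is given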
Target sequence (P42568 whole entry, looked up): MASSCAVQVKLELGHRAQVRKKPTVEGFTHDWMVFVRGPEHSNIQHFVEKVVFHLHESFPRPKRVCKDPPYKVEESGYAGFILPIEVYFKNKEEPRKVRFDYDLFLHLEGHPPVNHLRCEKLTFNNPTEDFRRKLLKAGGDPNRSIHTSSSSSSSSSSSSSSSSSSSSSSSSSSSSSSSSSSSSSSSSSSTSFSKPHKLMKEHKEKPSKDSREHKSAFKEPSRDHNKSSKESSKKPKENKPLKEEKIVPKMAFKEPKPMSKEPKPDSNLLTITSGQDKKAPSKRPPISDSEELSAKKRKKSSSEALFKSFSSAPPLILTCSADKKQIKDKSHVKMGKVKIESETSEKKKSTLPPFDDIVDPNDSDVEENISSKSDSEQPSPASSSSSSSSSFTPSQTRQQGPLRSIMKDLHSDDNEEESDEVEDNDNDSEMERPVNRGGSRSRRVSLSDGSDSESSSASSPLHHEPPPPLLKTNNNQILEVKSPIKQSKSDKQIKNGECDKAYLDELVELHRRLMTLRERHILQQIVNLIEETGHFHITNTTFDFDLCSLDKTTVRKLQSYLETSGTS
RanGTP-Impb inh = inhibitors of RanGTP-importin-beta interaction, primary screen, biochemical, FRET, CFP-Ran, YFP-importin-beta, homogeneous; cell-free CFP-Ran/YFP-importin-beta FRET ratio; inhibition, % (concentration not given with the values); 300,000 tested, 1.1% active; AID 2216;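 active = most replicates above 15%; inconclusive = exactly half above 15%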;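 note: 0% = DMSO wells and 100% = Ran loaded with GDP instead of GTP; wells of about 40 µL received 100 nL stock; the first replicate is given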
An asterisk follows results filed as active; u = inconclusive; x = not tested or not shown.

molecule	Calb FLC	T cruzi inh	LANA-H2A inh	Beta apoptosis	A1 inh	Vif TR-FRET	AF4-AF9 inh	RanGTP-Impb inh
Cc1cc2c(cc1C)[n+](C)cn2CC(O)COCc1ccccc1 (stereo not drawn)	-24.4	-5.9	2.7	6.8	0.0	-1.5%	x	3.1
CCOc1ccc(NC(=O)C2CCN(S(=O)(=O)c3ccc4c(c3)CC(C)N4C(C)=O)CC2)cc1 (stereo not drawn)	-3.7	3.4	1.4	6.1	-0.2	x	-7.0	1.6
CCN(Cc1ccccc1)C(=O)CCNS(=O)(=O)c1cc(Br)cnc1N	-10.1	8.2	0.7	0.8	-1.4	7.3%	0.6	0.4
CCOCCCNC(=S)N1CCN(c2nc(-c3ccccc3)cs2)CC1	9.1	-4.3	-0.1	x	0.9	-3.7%	1.1	0.7
CCOC(=O)C1CCN(C(=O)c2ccc3snnc3c2)CC1	-0.2	-21.4	-5.7	0.5	0.3	77.0%	x	-0.1
CN(C)CCn1c2c(c(SCC(=O)N3CCc4ccccc43)nc1=O)CCCC2	-2.0	41.1	-0.4	x	1.8	7.2%	1.4	3.1
COc1ccc(OCCOCCN2CCOCC2)cc1	2.6	-18.1	3.5	0.0	0.3	-0.6%	x	2.1
Nc1nonc1C(=O)NCCN=Cc1ccccc1O	-1.3	-8.6	3.2	-6.2	0.2	3.2%	x	0.8
COc1ccnc2c1c(=O)n(Cc1cccc(F)c1)c(=O)n2C	-6.3	2.8	5.6	1.7	0.2	-5.6%	0.5	1.7
c1cncc(-c2nnc3n2C2(CCCCC2)Cc2ccccc2-3)c1	-3.8	10.9	0.0	2.3	-0.3	u	x	0.9
CN(CC(=O)Nc1ccc(Cl)c(C(F)(F)F)c1)C(=O)C1(c2ccccc2)CC1	2.4	3.3	x	-8.5	-0.4	-2.9%	-6.6	0.8
COc1ccc(C(C)=O)cc1COC(=O)C1CC(=O)N(Cc2ccccc2)C1 (stereo not drawn)	0.1	9.4	2.5	4.3	-0.4	x	-0.3	0.8
Clc1ccc2[nH]c3c(c2c1)CCc1cn[nH]c1-3	u	5.6	0.1	-15.4	1.1	4.2%	x	-3.7
CC(=O)c1c(C)[nH]c(C(=O)NCC2CCCCC2)c1C	-5.9	2.8	-1.2	1.2	0.0	7.5%	1.1	-2.3
CC1=CC=CC2=NC(=O)CC(C)(C(=O)N(CC(=O)NC3CCCC3)c3ccc(F)cc3)N12 (stereo not drawn)	-9.6	7.1	5.5	-0.8	-0.2	x	-4.4	-4.0
Cc1nnc(NC(=O)CSc2nc3[nH]ncc3c(=O)[nH]2)s1	3.8	-11.6	0.9	2.8	0.5	17.8%	-1.4	-0.5
CCOC(=O)C1=C(C)N=c2s/c(=C\c3ccncc3)c(=O)n2C1c1ccc2c(c1)OCO2 (stereo not drawn)	14.2	23.3	1.8	1.1	0.6	30.1%	x	1.5
CCOc1ccccc1C(=O)NC(C(=O)Nc1cccnc1)C(C)C (stereo not drawn)	-0.9	1.5	-1.0	-3.2	-1.0	-1.4%	-0.3	1.8
C=CCN(c1ccccc1)S(=O)(=O)c1ccc2c(c1)NC(=O)C(C)S2 (stereo not drawn)	18.5	2.4	-1.2	1.2	-0.6	-6.0%	-0.6	3.1
COc1ccc(S(N)(=O)=O)cc1C(=O)OCCCOC(=O)c1cc(S(N)(=O)=O)ccc1OC	-7.5	-3.1	-0.8	-2.4	0.7	x	-0.3	0.6
Cn1cc(C(=O)Nc2ccc(Cl)cc2)c(C(F)(F)F)n1	-10.0	-9.6	-417.8	-5.4	0.1	-6.3%	1.1	3.0
N#Cc1ccc(NC(=O)COC(=O)CCc2ccc(S(=O)(=O)N3CCCCC3)cc2)cc1	-5.5	-7.2	-2.3	-8.9	-0.3	x	3.4	-4.7
CCOC(=O)c1[nH]c(=O)[nH]c1CSc1nc(C)cc(C)n1	5.9	-13.0	-2.0	-1.8	0.0	-3.1%	x	1.5
CCOc1cc(/C=N/NC(N)=O)ccc1OC(=O)c1ccc(C)cc1	5.6	-3.7	1.4	0.2	0.9	-2.0%	x	-1.4
CCN(CC(=O)N1CCCC1)S(=O)(=O)c1ccc(Br)cc1	-11.1	-0.6	-1.6	0.1	-0.4	0.7%	-6.6	1.3
CCOc1cc(/C=N/NC(=O)c2cccnc2)ccc1OC(=O)c1ccco1	-17.6	0.7	1.8	-4.7	0.6	7.8%	-0.4	2.8
O=c1oc2ccccc2c(Nc2ccc(O)cc2)c1[N+](=O)[O-]	17.2	-2.5	1.0	4.0	0.2	4.3%	x	2.5
Oc1ccc(O)c(Cc2nc3ccccc3[nH]2)c1	28.9	7.2	1.1	-7.5	1.0	26.8%	4.1	-0.5
O=C(COc1ccc(Cl)cc1)N(Cc1ccc(F)cc1)C1CCS(=O)(=O)C1 (stereo not drawn)	27.7	12.4	3.3	-4.8	0.7	-0.3%	0.7	3.6
Cc1ccc(S(=O)(=O)N/N=C\c2ccc(Cl)c([N+](=O)[O-])c2)cc1	9.4	-12.0	2.6	-1.8	-0.3	0.5%	-83.6	-1.8
Cc1c(NS(=O)(=O)c2ccc(S(=O)(=O)c3ccccc3)s2)c(=O)n(-c2ccccc2)n1C	5.6	-4.7	-1.7	-1.9	0.2	-2.3%	-1.5	1.5
COc1ccc(NC2CCCN(C(=O)CCC(=O)c3ccc(F)cc3)C2)cc1 (stereo not drawn)	9.2	2.9	-2.0	-0.4	-0.2	-5.3%	9.9	3.0
CCOc1ccc(C(=O)NC(=S)Nc2ccc(NC(=O)C(C)C)cc2)cc1[N+](=O)[O-]	-6.9	2.4	3.1	-8.9	-0.3	-1.0%	x	-0.5
O=C(/C=C/c1cn(-c2ccccc2)nc1-c1cccnc1)c1ccco1	56.2	3.8	-0.4	-5.0	0.6	x	8.2	2.0
CSc1ccc(S(=O)(=O)NCC(=O)OCC(=O)N(C)CC(=O)Nc2ccccc2Cl)cc1[N+](=O)[O-]	7.2	9.0	1.9	x	0.1	7.2%	-0.3	0.2
O=C(Nc1ccc(S(=O)(=O)N2CCOCC2)cc1)c1cccc([N+](=O)[O-])c1	-13.3	3.0	1.8	4.1	0.5	x	7.1	4.9
O=C(NC(Cc1ccccc1)C(=O)NCCc1ccccn1)c1ccccc1 (stereo not drawn)	8.8	-8.2	-7.3	-6.2	2.1	4.1%	0.2	u
CC(C)(C)n1nnnc1CN1C2CCC1CC(NC(=O)Nc1ccccc1)C2 (stereo not drawn)	8.8	3.4	-5.3	-3.0	-0.9	0.7%	x	4.4
O=C(O)c1cc(-c2ccccc2)n(-c2ccccc2C(=O)O)n1	10.5	-2.9	-9.7	x	-0.4	-2.8%	x	-2.1
O=C(CN1CCN(c2ccccc2F)CC1)NC(=O)NC1CCCCC1	x	x	1.3	-5.3	1.9	5.7%	-4.6	x
COc1ccc(OC)c(NS(=O)(=O)c2ccc(SC)cc2)c1	-0.9	27.0	-0.3	0.4	0.7	19.0%	x	-2.0
Cc1ccc(-c2csc(NC(=O)C[n+]3cc(-c4ccc(C)cc4)n4c3CCC4)n2)cc1	24.3	-11.7	-2.6	11.0	-0.9	13.7%	u	1.7
OC(COc1ccc(Br)cc1)CN1CCC(Cc2ccccc2)CC1 (stereo not drawn)	-20.7	18.4	-0.5	10.2	1.4	x	-4.1	3.3
COc1ccc2[nH]cc(CCNC(=O)c3ccc([N+](=O)[O-])cc3)c2c1	4.6	-9.1	-5.1	6.2	0.7	19.6%	3.6	0.5
COc1ccc(-c2nc3ncccc3o2)cc1NC(=O)c1ccco1	-9.7	36.4	1.9	4.8	-0.1	x	-0.8	1.0
CN(C)/C=C/C(=C\C(=O)C(F)(F)F)Nc1ccc(C(F)(F)F)cc1	-7.7	6.9	2.2	3.5	0.0	-10.0%	3.7	-2.4
O=C1CC(c2ccco2)CC(O)=C1C=Nc1cc(Cl)ccc1Cl (stereo not drawn)	7.1	0.1	-0.3	-7.4	0.1	4.07µM*	x	-0.3
COc1ccc(NS(=O)(=O)c2cc3c4c(c2)C(C)C(=O)N4CCC3)cc1 (stereo not drawn)	2.4	-15.1	0.3	0.7	-0.6	1.5%	1.0	-1.3
Cc1ccc(C(=O)Nc2ncnc3sc4c(c23)CCCCC4)cc1	15.3	5.9	-1.6	x	-0.7	-3.3%	x	-3.1
C/C(=N\Nc1nc2ccccc2[nH]1)c1ccc2c(c1)OCO2	-2.9	78.4*	-0.5	15.9	-1.0	6.4%	33.1*	1.9

Other results follow.
molecule	Calb FLC	T cruzi inh	LANA-H2A inh	Beta apoptosis	A1 inh	Vif TR-FRET	AF4-AF9 inh	RanGTP-Impb inh
CC1(C)CC[C@]2(C(=O)O[C@@H]3O[C@H](CO)[C@@H](O)[C@H](O)[C@H]3O)CC[C@]3(C)C(=CCC4[C@@]5(C)CC[C@H](O[C@@H]6O[C@H](C(=O)O)[C@@H](O[C@H]7OC[C@@H](O)[C@@H](O)[C@@H]7O)[C@H](O)[C@H]6O)C(C)(C)C5CC[C@]43C)[C@@H]2C1 (stereo partly drawn)	x	x	5.4	2.7	0.7	x	0.6	x
S=C(Nc1cccnc1)N1CCCCC1	6.2	-9.0	-2.3	-9.3	-0.9	-5.2%	-1.0	-20.7
CCCc1cc(Nc2ccc(C)cc2)n2ncnc2n1	-4.8	-11.4	0.3	-3.6	0.2	x	1.9	-2.8
CCOc1ccc(S(=O)(=O)NCCC(=O)NCc2ccccn2)cc1	-0.2	-5.7	-5.1	1.3	0.7	-7.5%	-0.6	4.2
CCOC(=O)c1c(NC(=O)C2CCCO2)sc(C)c1C (stereo not drawn)	12.8	14.1	-0.3	-1.6	u	-1.2%	-0.7	-1.7
CC(C)Oc1ccc(C(CC(=O)NCc2ccco2)c2ccccc2)cc1 (stereo not drawn)	-24.5	x	1.5	3.5	1.1	u	6.0	0.3
COc1ccc(NC(=O)CN(C)C(=O)c2cc(S(=O)(=O)N3CCCCCC3)ccc2OC)cc1	-2.4	-5.7	10.5	-2.6	0.2	-2.0%	5.7	5.5
CC(C)Cn1nc(-c2ccccc2)c2ccccc2c1=O	-3.4	-2.6	0.1	-1.1	1.6	-8.2%	-5.7	-5.8
Cc1cccc(C(=O)Nc2ccc(CC(=O)O)cc2)c1	-5.5	-10.0	-0.9	7.0	-2.3	6.0%	x	6.3
CC(NC(=O)CNC(=O)[C@@H]1Cc2ccccc2CN1)c1ccccc1 (stereo partly drawn)	-1.8	-6.1	0.7	-3.8	-1.5	x	-9.1	-0.4

Screening data: PubChem, several laboratories
